INS promoter inh = TRM-6 insulin promoter activity inhibition; TRM-6 cells (human fetal islet line), insulin promoter-eGFP reporter, imaging; reporter expression induced with tamoxifen; inhibition, % at 2 µM; 0.9% of 130,000 active;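 active means inhibition above the mean plus 3 SD, with well images judged a real hit on visual review, cut at about 60% in these data, passing the limit was not always enough; inconclusive means inhibition over the cutoff but images rejected on review; inactive means inhibition not above the cutoff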
PKD1 kinase inh = blocks activity of human protein kinase D1. Q15139. PKD1 kinase fluorescence polarization assay. inhibition, %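 (about 10 µM by stock and volumes)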. 0.056% of 200,000 active. AID 797;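 active means inhibition of 50% or more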;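 further: controls were vehicle for no effect and a reference inhibitor for full effect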
Target sequence (Q15139 whole entry, looked up): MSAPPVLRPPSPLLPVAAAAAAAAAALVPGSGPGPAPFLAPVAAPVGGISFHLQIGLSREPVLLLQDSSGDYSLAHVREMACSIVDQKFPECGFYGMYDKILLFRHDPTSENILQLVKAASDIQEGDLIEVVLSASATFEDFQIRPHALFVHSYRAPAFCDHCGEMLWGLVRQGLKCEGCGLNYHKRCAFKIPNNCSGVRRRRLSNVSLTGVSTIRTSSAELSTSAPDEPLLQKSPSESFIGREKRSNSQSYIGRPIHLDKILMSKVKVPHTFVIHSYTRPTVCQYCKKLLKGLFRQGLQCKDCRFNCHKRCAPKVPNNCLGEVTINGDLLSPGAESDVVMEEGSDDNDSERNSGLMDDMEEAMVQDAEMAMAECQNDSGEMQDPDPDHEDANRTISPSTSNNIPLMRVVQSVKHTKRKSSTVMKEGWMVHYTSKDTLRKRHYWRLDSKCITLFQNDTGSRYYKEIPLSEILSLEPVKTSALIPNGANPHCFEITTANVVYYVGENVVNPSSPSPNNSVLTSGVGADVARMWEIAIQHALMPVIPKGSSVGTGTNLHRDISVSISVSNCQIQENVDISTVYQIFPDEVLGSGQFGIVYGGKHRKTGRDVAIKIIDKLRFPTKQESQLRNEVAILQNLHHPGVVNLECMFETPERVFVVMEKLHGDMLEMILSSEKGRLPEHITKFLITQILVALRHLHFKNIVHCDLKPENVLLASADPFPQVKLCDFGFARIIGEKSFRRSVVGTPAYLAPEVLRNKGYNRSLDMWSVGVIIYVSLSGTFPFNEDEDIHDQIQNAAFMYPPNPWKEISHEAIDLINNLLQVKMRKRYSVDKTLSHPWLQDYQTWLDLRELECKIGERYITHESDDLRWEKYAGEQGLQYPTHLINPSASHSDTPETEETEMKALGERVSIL
GALR2 agonist = activates the human galanin receptor 2 | GALR2-expressing cells, agonist activation read-out | activation, %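 (tested at 5 µM)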 | O43603 | 0.48% of 140,000 active;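 active means above mean plus 3 SD of all compounds, about 5% in these data, not always enough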;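 further: 0% = vehicle buffer wells and 100% = reference agonist at full effect; tested in CHO reporter cells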
HSV replic up = increases HSV replication in cells; HSV replication augmentation in cells, fold increase; maximum fold increase; 0.005% of 220,000 active; AID 1956;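 active means peak rise of 1.5-fold or more in the series; inconclusive means self-fluorescent or not available for retest; tested in PC3 cells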;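 further: first round at 10 µM; read as green reporter fluorescence; hits show the peak of a series up to 25 µM; 1 = signal of infected wells without compound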
RGS16-Gao HTS = RGS16-Galphao interaction regulator (human); 0.38% of 220,000 active; AID 1441; O15492+P09471; binding response (% of control), % at 10 µM; bead-based flow cytometry RGS16-Galphao binding, fluorescence; actives lie on both sides;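 active means below 25% or above 175%, edge rows of some plates excepted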;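 further: Galphao activated by GDP with aluminum fluoride before binding; 100% = wells without compound and 0% = beads without RGS; some results beyond the cut were filed as inactive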
INS promoter inh cell count = further read-out of INS promoter inh, marked with its call; normalized cell count, %; measured here: cell count, toxicity; reference of the scale not given here;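 cells exposed to compound for 48 h; stained nuclei by imaging scaled within each plate; lower means fewer cells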
HSV replic up primary fold = further read-out of HSV replic up, marked with its call; fold increase; compound at 10 µM; measured here: primary screen fold increase 10 uM; tested in PC3 cells;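 GFP signal in the first replicate; 1 = infected wells without compound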
* = called active by the depositor; i = inactive; ? = inconclusive; · = not tested or not shown; & = joins results of further samples. No enrichment for hits, and some 1.1% of all compounds hit somewhere here.

SMILES | INS promoter inh | INS promoter inh cell count | PKD1 kinase inh | GALR2 agonist | HSV replic up | HSV replic up primary fold | RGS16-Gao HTS
Cc1ccc(OCC(=O)Nc2cc(S(=O)(=O)N3CCOCC3)ccc2Cl)c([N+](=O)[O-])n1 | · | · | · | · | i | 0.83 | 87
O=C1CCCc2[nH]c(-c3ccccc3)nc21 | · | · | -3 | · | i | 0.89 | 104
CCOC(=O)c1ccccc1NC(=O)CSc1nc(N)cc(N)n1 | -72 | 141 | -9 | -2.7 | i | 0.92 | 81
COc1cc(OC)c(S(=O)(=O)NC(C)C)cc1S(=O)(=O)NC(C)C | · | · | 1 | · | i | 0.96 | 99
Cc1cccc(NC(=O)c2cc3ccccc3o2)c1 | 41 | 95 | 3 | -1.9 | i | 0.98 | 73
O=C(NCCOC(=O)c1ccc(C(=O)OCCNC(=O)c2cccnc2)s1)c1cccnc1 | 30 | 98 | 105* | -4.3 | i | 0.95 | 104
Cc1ccnc(NS(=O)(=O)c2ccc(N3C(=O)Nc4ccccc4N3O)cc2)c1 | 50 | 59 | 2 | · | i | 0.99 | 104
CC(C)(C)NS(=O)(=O)c1ccc(CCC(=O)O)cc1 | 29 | 139 | 0 | -0.6 | i | 1 | 101
CN(C)C(=O)c1cn(-c2ccccc2)nc1-c1cc2ccccc2oc1=O | -33 | 125 | 6 | · | i | 1 | 101
CC1CCCCC1NC(=S)NC(=O)c1sc2ccccc2c1Cl (centres undefined) | · | · | -2 | · | i | 1.2 | 101
CCc1ccc(NC(=O)Cn2c3[n+](c4c(F)c(F)ccc42)CCCCC3)cc1 | 33 | 105 | 1 | · | i | 0.85 | 110
Cn1[nH]c(CSc2ccc(Cl)cc2)cc1=O | · | · | 3 | · | i | 1 | 103
O=C(CSc1ccccn1)Nc1ccc(Cl)cn1 | · | · | 7 | · | i | 1.1 | 101
COCCn1c(SCC(=O)NCc2ccco2)nc2cccnc21 | 0 | 118 | -13 | -0.3 | i | 0.99 | 103
CN(C)c1nc(N2CCOCC2)nc(N(c2ccccc2)c2ccccc2)n1 | -6 | 106 | 2 | -1.8 | i | 1.1 | 104
Cc1c(-c2ccn[nH]2)cc(NC(=O)c2ccc(Cl)cc2)c(=O)n1N | 36 | 102 | 1 | · | i | 0.88 | 98
CN1CCN(/N=C/c2ccc(-c3ccc([N+](=O)[O-])cc3Cl)o2)CC1 | -316 | 115 | -5 | · | ? | · | 106
Cc1c(Cl)cccc1-n1c(SCC(=O)NCc2cccs2)nnc1-c1ccncc1 | 91* | 39* | -7 | -1.4 | i | 0.97 | 97
Cc1oc(C(=O)O)cc1CSCc1cc(C(=O)O)c(C)o1 | -33 | 159 | -3 | -0.2 | i | 1 | 101
CC(C)(C)C1CCc2c(sc3c2C(=O)NC(c2ccco2)N3)C1 (centres undefined) | 0 | 56 | 6 | -1.2 | i | 1 | 102
O=C(C(=O)N1CCOCC1)c1cn(CCOc2ccccc2)c2ccccc12 | · | · | -3 | · | i | 0.99 | 103
CCOC(=O)CSC1=C(C#N)C(c2sccc2C)C(C(C)=O)=C(C)N1 (centres undefined) | -29 | 133 | -1 | -0.3 | i | 0.9 | 95
CC(=O)NCC(=O)N(C)C(C(=O)Nc1ccc2c(c1)OCCO2)c1ccc(C)cc1 (centres undefined) | 0 | 91 | 6 | · | i | 1 | 102
O=C(O)c1ccccc1C(=O)Nc1ccc(Br)c2cccnc12 | · | · | -4 | · | i | 0.96 | 102
Cc1cnc(NC(=O)c2sc(Nc3ccccc3)nc2N)o1 | · | · | · | · | i | 0.78 | 104
COc1ccc(S(=O)(=O)N2Cc3ccccc3CC2C(=O)O)cc1 (centres undefined) | · | · | -2 | -2.4 | i | 0.9 | 98
Oc1ccc(C=Nc2ccc(N3CCOCC3)cc2)c(O)c1 | · | · | -5 | -1.3 | · | · | 85
Cc1noc(C)c1CSCC(=O)OCC(=O)NC1CCCCC1 | 10 | 59 | -1 | -1.4 | i | 1 | 109
C=CCn1cc(C(=O)OC)c(=O)c2cc(S(=O)(=O)N3CCC(C)CC3)ccc21 | 0 | 138 | 7 | -2.6 | i | 0.91 | ·
CCOC(=O)Cn1nnnc1C(C(C)C)N(Cc1cc2c(C)cc(C)cc2[nH]c1=O)C1CCCC1 (centres undefined) | 17 | 101 | -10 | -0.9 | i | 0.98 | 94
C=CCN(c1ccccc1C(=O)O)S(=O)(=O)/C=C/c1ccccc1 | · | · | 9 | · | i | 0.95 | 101
O=C(CSCc1c(Cl)cccc1Cl)N1CCOCC1 | · | · | 0 | · | i | 1.2 | 104
CCO[C@@H]1OC(C(=O)NCc2nc3ccccc3[nH]2)=C[C@H](C)[C@H]1CCCO | · | · | 0 | · | i | 0.79 | 105
CCn1c2ccccc2c2cc(NC(=O)c3cccc(OC)c3)ccc21 | -28 | 100 | -7 | -3.6 | i | 0.86 | 107
COc1ccccc1-c1c(C)oc2cc(OCC(=O)OCc3ccccc3)ccc2c1=O | 0 | 79 | -8 | -1.6 | i | 0.99 | 11
CC(=O)N1N=C(c2cccs2)CC1c1cccc([N+](=O)[O-])c1 (centres undefined) | · | · | -3 | · | i | 0.95 | 100
COc1ccc(-c2nnn(CC(=O)NCc3ccc4c(c3)OCO4)n2)cc1OC | 17 | 35 | -8 | · | i | 1.1 | 111
CC(C)C(c1nnnn1C(C)(C)C)N1CCOCC1 (centres undefined) | 5 | 64 | -13 | 0.0 | i | 0.79 | 98
COc1ccc(CN2CCNC(=O)C2CC(=O)O)cc1OC (centres undefined) | · | · | 5 | -3.0 | i | 0.82 | 92
COc1ccc(-c2[nH]ncc2N=Nc2cc(C)cc(C)c2)cc1 | · | · | -3 | · | i | 0.74 | 99
COc1ccc(NC(=S)NC(=O)/C=C/c2cccs2)cc1 | · | · | 2 | · | i | 1 | 107
CC(NC(=O)/C(=C/c1ccc2c(c1)OCO2)NC(=O)c1cccc([N+](=O)[O-])c1)C(=O)O (centres undefined) | · | · | -3 | · | i | 0.88 | 103
O=C(NCCCN1CCOCC1)c1ccc(-n2nc(C(F)(F)F)cc2-c2cccs2)cc1 | 5 | 87 | 2 | -1.9 | i | 0.95 | 99
Cc1c([N+](=O)[O-])ccc(S(=O)(=O)N2CCC(C(N)=O)CC2)c1C | 11 | 73 | -10 | -1.2 | i | 0.98 | 55
CCOC(=O)c1cc(-c2ccccc2)n(CC(=O)Nc2cccc(OC)c2)c1C | 6 | 179 | 11 | 0.6 | i | 0.87 | 102
O=c1c2ccccc2nc2n1CCCS2 | · | · | -10 | -2.8 | i | 0.88 | 110
CCOc1ccc(NC(=O)Cc2ccccc2)cc1 | 0 | 63 | 5 | -0.7 | i | 0.82 | 112
CCn1cc(CNc2nc3nonc3nc2N2CCCCC2)cn1 | · | · | -4 | · | i | 1 | 99
CC(NC(=O)c1ccco1)C(c1cccs1)N1CCN(c2ccccc2F)CC1 (centres undefined) | -6 | 102 | -3 | -3.1 | i | 0.99 | 99
O=C1NC(=Nc2cccnc2)S/C1=C\c1cccc(F)c1 | · | · | · | · | ? | · | 101

Profiles, quoted from the list:
CC(=O)NCC(=O)N(C)C(C(=O)Nc1ccc2c(c1)OCCO2)c1ccc(C)cc1 (centres undefined) across the screens: INS promoter inh: 0; INS promoter inh cell count: 91; PKD1 kinase inh: 6; GALR2 agonist: ·; HSV replic up: i; HSV replic up primary fold: 1; RGS16-Gao HTS: 102
CC(C)C(c1nnnn1C(C)(C)C)N1CCOCC1 (centres undefined) across the screens: INS promoter inh: 5; INS promoter inh cell count: 64; PKD1 kinase inh: -13; GALR2 agonist: 0.0; HSV replic up: i; HSV replic up primary fold: 0.79; RGS16-Gao HTS: 98

Additional structures follow:
SMILES | INS promoter inh | INS promoter inh cell count | PKD1 kinase inh | GALR2 agonist | HSV replic up | HSV replic up primary fold | RGS16-Gao HTS
CCOC(=O)N1CCC(NC(=O)C2=CCN(S(=O)(=O)c3ccc(F)cc3)CC2)CC1 | · | · | · | · | i | 1.1 | 104
COc1cc2[nH]cc(C(=O)NCCc3ccccc3)c(=O)c2cc1OC | 62 | 152 | 3 | 0.1 | i | 0.98 | 101
COc1ccccc1NC(=S)NC(=O)C(C)C | · | · | 9 | -0.8 | i | 0.86 | 97
CC(=O)Nc1cccc(NC(=O)c2cc(Cl)ccc2Cl)c1 | -44 | 108 | -7 | · | i | 0.97 | 101
COc1ccccc1NC(=O)CCCc1nc(-c2ccc(OC)c(OC)c2)no1 | · | · | 2 | · | i | 1 | 109
CC(NC(=O)C(C)(C)C)C(c1cccs1)N1CCOCC1 (centres undefined) | · | · | · | · | i | 1.2 | 105
Cc1ccc(C2C(C#N)=C(N)SC(N)=C2C#N)cc1 | -121 | 65 | -2 | -0.1 | · | · | 104
CC(OC(=O)C1=COCCO1)C(=O)Nc1cc(S(=O)(=O)N2CCCCC2)ccc1Cl (centres undefined) | 11 | 122 | -3 | · | i | 0.88 | 104
COc1ccc([N+](=O)[O-])cc1NC(=O)c1ccc(N(Cc2ccccc2C)S(C)(=O)=O)cc1 | · | · | 6 | -0.3 | i | 0.9 | 100
O=C(c1cnsn1)N1CCN(c2ccccc2)CC1 | -48 | 105 | -8 | -1.6 | i | 0.81 | 102
Cc1ccc(-n2c(C)nc3c(cnn3-c3ccc(C)c(C)c3)c2=O)cc1C | · | · | -1 | -0.7 | i | 0.87 | 102
CCOC(=O)c1ccccc1NC(=O)CSc1ccc(-c2cccnc2)nn1 | -58 | 181 | 1 | · | i | 0.94 | 105
CCCCC1CCC(C(=O)Nc2c(C)n(C)n(-c3ccccc3)c2=O)CC1 (centres undefined) | -121 | 119 | -11 | -0.5 | · | · | ·
COC(=O)c1[nH]c2cc(C)ccc2c1NC(=O)CN1CCc2cc(OC)c(OC)cc2C1 | 45 | 116 | -4 | -0.4 | i | 0.99 | 97
COc1ccc(-c2csc(/C(C#N)=C\c3ccc(O)c([N+](=O)[O-])c3)n2)cc1OC | · | · | · | · | i | 1 | 99
CC(C)Oc1ccc(C(=O)N(CN2CCCC2=O)c2ccc(F)cc2)cc1 | · | · | -14 | -0.5 | i | 0.81 | 84
O=C(/C=N/O)Nc1ccccc1C(=O)O | 0 | 110 | -3 | 0.5 | i | 0.91 | 100
COc1ccc(C(=O)O)cc1NC(=S)NC(=O)c1ccc(-c2ccc(Cl)cc2)o1 | 0 | 59 | -2 | · | i | 0.95 | 89
Cc1ccccc1NC(=O)NCCc1c[nH]c2ccccc12 | · | · | -10 | · | i | 0.99 | 101
Oc1ccccc1-c1nc2cnccn2c1Nc1ccc2c(c1)OCCO2 | 13 | 149 | -5 | -3.2 | i | 0.89 | 103
Cc1cc2n(n1)C(c1cccs1)Nc1ccccc1-2 (centres undefined) | i | 46 | 1 | -0.3 | i | 0.94 | 97
CC(=O)N1CCc2cc(S(=O)(=O)N3CCOCC3)ccc21 | 6 | 172 | -2 | -3.0 | i | 1 | 102
Cc1ccccc1OCCC(=O)OCC(=O)Nc1ccc(C(N)=O)cc1 | · | · | · | · | i | 1 | 104
Cc1nnc(SCc2cccc([N+](=O)[O-])c2)s1 | · | · | -4 | · | i | 1 | 104
CCOc1ccc(C(O)C(CN2CCOCC2)c2ccccc2)cc1 (centres undefined) | 26 | 71 | -5 | -0.7 | i | 0.93 | 96
CCS(=O)(=O)Nc1ccc(C(=O)CC2(O)C(=O)Nc3ccc(Br)cc32)cc1 (centres undefined) | -30 | 97 | -4 | -1.2 | i | 1 | 101
CCOC(=O)c1cccnc1SCC(=O)N(C)c1ccccc1 | · | · | -6 | -3.7 | i | 0.97 | 103
C/C(CC(=O)NCc1ccc(F)cc1)=N\NC(N)=S | 0 | 76 | -5 | · | i | 0.98 | 112
Cc1ccc(-n2c(Cc3cccn3C)nnc2SCC(N)=O)cc1 | · | · | 3 | -2.4 | i | 1 | 107
Cc1nnc(SCc2cc(=O)n3[nH]cnc3n2)s1 | -488 | 32 | -2 | -1.8 | i | 1.2 | 103
COc1ccc(CC(=O)Nc2ccc(N3CCN(c4ccc(OC)cc4)CC3)c(C#N)c2)cc1 | -4 | 136 | -8 | 0.5 | i | 0.66 | 122
COc1ccccc1N(CCN1C(=O)c2cccc3cccc(c23)C1=O)C(=O)c1ccncc1 | · | · | -2 | · | i | 0.94 | 100
O=C1c2ccccc2-c2nc3ccccc3n21 | -74 | 96 | -7 | -1.0 | i | 0.96&1.2 | 94&103
COc1ccc(CCn2c(C)cc(C(=O)CSc3nnnn3C)c2C)cc1 | 30 | 90 | -12 | 1.4 | i | 1 | 101

Bioassay records from PubChem BioAssay.
